From PubChem
HTT prom inh = HTT promoter inhibition | Potency, µM (top dose mostly 57.5 µM), for inactives: at the top dose activity change, negative = inhibition, most hits filed as inhibitors | AID 1508623 | 48,000 compounds, 0.93% hits | HEK293 HTT promoter firefly luciferase reporter (activity 0% = vehicle and -100% = no light), 24 h; active = well fitted inhibition curve with a large enough effect; inconclusive = small, poorly fitted or top-dose-only effect; inactive = no such curve, though single readings can be large or run the other way; note: nearly all actives have a fitted effect of over 50% in size
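Quantitative HTS used concentration series of up to 57.5 uM final on HEK293 luciferase reporter cells, 24 h at 37 degrees C. Readout was Dual-Glo firefly luminescence.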
PMP22 txn prim = modulators of PMP22 gene transcription in S16 Schwann cells. Potency, µM (titrated, usually from 57.5 µM), for inactives: at the top dose activity change, negative = inhibition, most hits filed as inhibitors. 43,000 compounds, 2% hits. S16 Pmp22-F2sN Schwann cells (luciferase reporters placed in the Pmp22 gene), FLuc/NLuc coincidence luminescence, 24 h; active = clear falling dose curves in both reporters; inconclusive = both reporters move, but less clearly or upward; inactive = either reporter flat; the % is the NLuc reporter signal; note: % is set by controls: 0 for no effect and ±100 for the full control effect; some results filed as inactive show a strong effect at the top dose
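Luminescent read-out of sequential FLuc and NLuc signals from a reporter embedded in the Pmp22 3' UTR of S16 Schwann cells, taken after 24 h compound exposure at 37C; compounds reducing both signals score as inhibitors of expression.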
* hit, by the source's call; ? = inconclusive; / = not tested or not shown; [ ] = another dose, or the depositor's remark. Potency is the fitted concentration of half-maximal effect. Rows were taken by chance (roughly 2.6% active in at least one column).

no.	Molecule	PMP22 txn prim	HTT prom inh
1	Cc1oc(-c2ccccc2F)nc1CSCC(=O)N1CCN(c2ccccc2)CC1	?	22.4µM*
2	Cc1cc(=O)n2nc(N3CCC(C(=O)Nc4c(C)cccc4C)CC3)sc2n1	-12.3%	-15.2%
3	COc1ccc(C)cc1NC(=O)Cn1cc(S(=O)(=O)N2CCC(C)CC2)c2ccccc2c1=O	-37.7%	-28.4%
4	CCN(CCCNC(=O)Cn1ncc2c3ccccc3n(C)c2c1=O)c1cccc(C)c1	-2.8%	18.4%
5	CC[C@@H]([C@H](C)O)n1ncn(-c2ccc(N3CCN(c4ccc(OCC5CO[C@@](Cn6cncn6)(c6ccc(F)cc6F)C5)cc4)CC3)cc2)c1=O (some centres undefined)	/	-21.0%
6	COC(=O)c1cc2oc(C)cc2n1Cc1ccccc1Cl	-3.3%	-19.0%
7	Cc1ccccc1-c1nc(CS(=O)(=O)CC(=O)NCc2cccc(Cl)c2)c(C)o1	0.4%	-3.1%
8	COc1ccc(OC)c(CCNC(=O)c2cc3c(=O)n(C)c4ccccc4c3n2C)c1	?	-21.2%
9	COc1ccc(CCNC(=O)c2ccc3c(c2)N(Cc2ccccc2F)C(=O)c2ccccc2S3=O)cc1OC (centres undefined)	?	6.8%
10	COc1ccc(NC(=O)c2sc3nc4n(c(=O)c3c2C)CCC4)c(OC)c1	-0.1%	-5.5%
11	CCc1cccc(NC(=O)c2cnc(N3CCOCC3)c3ccccc23)c1	?	?
12	NC(=O)c1ncn([C@@H]2O[C@H](CO)[C@@H](O)[C@@H]2O)n1	/	2.0%
13	Cc1cccc(Cc2c(C)nc3nc(SCC(=O)NCc4ccc(F)cc4)nn3c2C)c1	?	?
14	COc1ccc(Cl)cc1NC(=O)c1c(NCc2cccs2)sc2c1CCC(C)C2 (centres undefined)	?	-21.5%
15	CC1(C)Cc2c(c(N3CCOCC3)nc3sc(C(=O)Nc4ccc(Cl)cc4)c(N)c23)CO1	?	-5.1%
16	CCOC(=O)c1ccccc1NC(=O)c1sc2nc(-c3ccc(F)cc3)cn2c1C	9.2%	-6.7%
17	Cc1nc(N2CCCC2)c2c(C(=O)Nc3cccc(C)c3C)c(C)oc2n1	2.5%	-8.1%
18	CC(C)C(=O)Nc1cccc(NC2=NS(=O)(=O)c3ccccc32)c1	-2.1%	4.7%
19	Nc1cc(=O)nc(SCC(=O)Nc2cccc(Cl)c2)n1CCc1ccccc1	-1.1%	?
20	COCc1nc2ccccc2n1Cc1ccc(C(C)(C)C)cc1	?	1.3%
21	CC1(C)O[C@@H]2[C@@H](CO[C@@]3(COS(N)(=O)=O)OC(C)(C)O[C@@H]23)O1	/	4.7%
22	Cc1cc(C)cc(-n2c(SCC(=O)NCc3ccc(F)cc3)nc3c([nH]c4ccccc43)c2=O)c1	?	-10.8%
23	Cc1ccc(-n2c(=O)c3c4c(sc3n(Cc3cccc(Cl)c3)c2=O)CCC4)cc1C	-9.8%	-22.5%
24	CCOc1ccc(NC(=O)CSc2oc(-c3cccs3)nc2S(=O)(=O)c2ccc(Cl)cc2)cc1	?	-12.6%
25	CCOC(=O)c1cc(OC(=O)c2ccccc2OC)n(-c2ccccc2)n1	-21.3%	-4.0%
26	CCCCn1cc(S(=O)(=O)c2cc(C)ccc2C)c(=O)c2cc(F)c(F)cc21	-3.5%	-22.6%
27	CCCN(CCC)CCNC(=O)c1cc(Sc2ccc(Cl)cc2)nc2ccccc12	?	-6.7%
28	CCOc1ccc(C(=O)Nc2cccc(C(=O)OCc3cc(=O)n4nc(C5CC5)sc4n3)c2)cc1	?	?
29	N#Cc1cccc(NC(=O)C2CCN(c3nc(-c4ccc(Cl)cc4)no3)CC2)c1	-11.1%	?
30	O=C(O)c1ccc(-c2c[nH]c3ncc(-c4ccccc4)cc23)cc1C1CCCC1	/	-18.0%
31	O=C(CCNS(=O)(=O)c1ccc2c(c1)CCN2C(=O)C1CC1)N1CCN(c2cccc(Cl)c2)CC1	?	?
32	COc1ccc2c(c1)c1c(c(=O)n(-c3ccccc3C)c(=O)n1CC(=O)N1CCCC1)n2C	?	-13.4%
33	C/C(=C(/OCCOc1ccc(Cl)cc1)c1ccc(Cl)cc1Cl)n1ccnc1	/	-16.7%
34	CCOC(=O)c1c(NC(=O)c2ccc(S(=O)(=O)N3CCCC(C)C3)cc2)sc2c1CC(C)(C)NC2(C)C (centres undefined)	?	-66.0%
35	COc1ccc(C(=O)c2oc3ccccc3c2NC(=O)c2cc(=O)c3ccc(C)cc3o2)cc1Cl	4.0%	6.3%
36	Cc1ccccc1-c1nc(CS(=O)(=O)CC(=O)Nc2cccc(C(F)(F)F)c2)c(C)o1	-14.1%	-31.2%
37	CCCCNc1oc(-c2ccc(COc3ccc(OC)cc3)o2)nc1C#N	-26.1%	-32.3%
38	COc1ccc(CCNC(=O)c2oc(=O)c3ccccc3c2-c2ccccc2)cc1OC	-40.8%	-17.3%
39	CC(=O)c1ccc(NC(=O)C2CCCN(S(=O)(=O)c3ccc(Br)s3)C2)cc1 (centres undefined)	4.3%	17.1%
40	CCN(C(=O)CN1C(=O)COc2ccc(S(=O)(=O)N3CCOCC3)cc21)c1cccc(C)c1	-2.6%	2.5%
41	CCOc1ccccc1NC(=O)c1cc2c(=O)[nH]c3ccccc3c2s1	7.6%	-13.6%
42	COc1ccc(Cl)cc1NC(=O)Cn1nnc2sc(-c3ccccc3)cc2c1=O	-1.5%	3.5%
43	Cc1ccc2ncc(C(=O)NCc3ccccc3Cl)c(=O)n2c1	7.2%	-17.0%
44	COCCn1c(=O)[nH]c2cc(C(=O)Nc3cccc(C(C)=O)c3)ccc2c1=O	16.7%	0.2%
45	CCCn1c2ccccc2c2cnn(CC(=O)NCCCN3CCCCC3)c(=O)c21	-18.4%	-2.0%
46	CCN(C(=O)CSc1nc2ccccc2n1Cc1ccc(C(=O)OC)cc1)c1ccccc1	7.5%	-21.8%
47	Cc1ccc(-n2c(=O)c3c4c(sc3n(Cc3ccccc3F)c2=O)CCC4)cc1C	-6.8%	-12.4%
48	COc1ccc(NC(=O)C2CCCN2S(=O)(=O)c2ccc3c(c2)CCCC(=O)N3)cc1Cl (centres undefined)	-5.9%	?
49	COc1ccc(Cl)cc1NC(=O)N1CCN(Cc2cc(=O)n3nc(-c4ccccc4)sc3n2)CC1	-28.1%	-7.3%
50	CCOc1ccccc1NC(=O)c1nc2nc(C)cc(C(F)F)n2n1	-1.4%	1.6%
51	Cc1ccc(Cl)cc1N1CCN(C(=O)COc2cc(=O)n(C)c3ccccc23)CC1	?	?
52	Oc1cccc(-c2nc(-c3cccs3)c(-c3cccs3)[nH]2)c1	?	-11.6%
53	FC1(F)C(F)(F)C(F)(F)C2(F)C(F)(F)C(F)(F)C(F)(F)C(F)(F)C2(F)C1(F)F (centres undefined)	/	3.0%
54	COC(=O)CC1Oc2ccc(C)cc2-n2cc(-c3ccc(F)cc3)nc21 (centres undefined)	-16.9%	-20.7%
55	O=C(Nc1cccnc1)c1cc(-c2ccc(Cl)cc2)on1	-17.3%	0.4%
56	COc1ccc(Cn2c(C(=O)O)c(CNC3CCC(C)CC3)c3ccc(C)cc32)cc1 (centres undefined)	16.6%	-9.6%
57	O=C(NCCN1CCN(c2cccc(Cl)c2)CC1)Nc1ccccc1C(F)(F)F	1.6%	-25.8%
58	CCCCC(=O)OC1=C(C(=O)c2ccccc2)N(CCC)S(=O)(=O)c2ccccc21	?	?
59	COc1ccc(N2CCN(c3nc4ccccc4n4c(C)nnc34)CC2)cc1	-10.4%	-5.1%
60	Cc1csc2nc(COC(=O)CNC(=O)c3ccccc3Cl)cc(=O)n12	-15.0%	8.0%

(cont.)
no.	Molecule	PMP22 txn prim	HTT prom inh
61	CCOc1ccccc1NC(=O)C1CCN(S(=O)(=O)c2ccc3[nH]c(=O)ccc3c2)CC1	?	-5.5%
62	CCOc1ccc(CNC(=O)CN2N=C(c3ccccc3)CCC2=O)cc1OC	-19.3%	-7.7%
63	CCCCCn1c(CCCNC(=O)c2ccccc2OC)nc2ccccc21	?	?
64	Cc1cccc(-c2noc(CN(C3CCCCC3)S(=O)(=O)c3ccc(F)cc3)n2)c1	-22.1%	-15.3%
65	COc1cc2c(cc1OC)C(COc1cccc(C(F)(F)F)c1)N(C(=O)c1ccc(S(=O)(=O)N3CCCC3)cc1)CC2 (centres undefined)	-4.8%	-22.8%
66	CCN(CC)S(=O)(=O)c1ccc2c(c1)nc(CN(C)C(=O)Nc1ccc(F)cc1)n2C	-8.8%	7.2%
67	Cc1nnc(NCc2ccc(Cl)cc2)c2c1nnn2Cc1ccc(F)cc1	-19.5%	-5.6%
68	Cc1cc(Cl)ccc1OCC(=O)N(Cc1ccc(N(C)C)cc1)C1CCS(=O)(=O)C1 (centres undefined)	2.2%	-37.2%
69	Cc1cccc(C(=O)NCc2nnc(SCC(=O)Nc3ccccc3F)n2-c2ccccc2)c1	9.3%	-9.4%
70	NC(Cc1ccc(Cl)cc1)C(=O)O (centres undefined)	/	-1.0%[0.739 µM]
71	CC1CCN(C(=O)CSc2nc(-c3ccccc3)no2)CC1	-18.5%	21.6%
72	COc1cccc(N2CCN(C(=O)Cn3nc(C)n4c(cc5c(OC)cccc54)c3=O)CC2)c1	-1.0%	2.3%
73	CC(=O)NCCNc1nc2c(-c3ccc(C)cc3)nnn2c2ccccc12	-30.5%	2.6%
74	COc1ccc2cc(CNc3ccc(C)cc3)c(=O)n(CC(=O)Nc3ccc(C)cc3Cl)c2c1	?	-25.9%
75	O=C(CCCCn1c(=O)c2ccccc2n(Cc2cccc(Cl)c2)c1=O)NCc1ccc2c(c1)OCO2	?	-7.2%
76	Cc1ccc(-c2onc(C)c2C)cc1S(=O)(=O)NC1CCC(C)CC1 (centres undefined)	?	?
77	CC(=O)Nc1ccc(NC(=O)c2csnn2)cc1	2.7%	31.4%[activator]
78	COc1ccc(-n2ncc(C(=O)N3CCc4ccccc4C3)c2C2CCN(C(=O)OC(C)(C)C)CC2)cc1	-9.9%	7.3%
79	COc1ccccc1N(CC(=O)NCCSCc1cccc(Cl)c1)S(C)(=O)=O	-24.6%	?
80	COc1ccc(-c2nc3scc(CCNS(=O)(=O)c4cccs4)n3n2)cc1	-45.0%	?
81	Cc1cccc(CNC(=O)C2CCCN(S(=O)(=O)c3cn(C)cn3)C2)c1 (centres undefined)	-9.1%	-12.3%
82	CCN(CC)CCN(C(=O)c1ccco1)c1nc2ccc(F)cc2s1	-4.7%	-10.3%
83	Cc1cc(C(F)(F)F)n2nc(-c3ccc(Br)cc3)cc2n1	-3.8%	-6.8%
84	CCOC(=O)NNC(=O)C1CCC(C)CC1 (centres undefined)	12.8%	1.7%
85	CCn1c(=O)cc(SCC(=O)NCc2ccccc2OC)c2ccccc21	?	-18.2%
86	CCOc1ccccc1NC(=O)CSc1ncc(S(=O)(=O)c2ccc(C)c(C)c2)c(N)n1	?	?
87	CCOC(=O)C1CCN(C(=O)C2CCN(S(=O)(=O)c3c(C)noc3/C=C/c3ccc(C)cc3)CC2)CC1	?	?
88	COc1ccccc1CCNC(=O)C1(c2cccs2)CCOCC1	11.7%	5.7%
89	CN1C(=O)c2ccccc2Sc2ccc(NC(=O)N3CCN(c4ccccc4F)CC3)cc21	7.7%	-16.6%
90	CCOC(=O)c1cnc2ccc(Cl)cc2c1Nc1ccc(N2CCOCC2)cc1	?	-31.9%
91	Cc1c(Cl)ccc2sc(N3CCN(C(=O)C(C)C)CC3)nc12	-153.9%	-20.6%
92	Cc1ccc(NC(=O)CSc2ncn[nH]2)cc1C	?	-15.3%
93	Cc1nnc(SCC(=O)NCc2ccccc2Cl)c2nn(-c3ccccc3)c(C)c12	14.1µM*	?
94	CC(=O)c1ccc(NC(=O)CSc2nnc(NC(=O)NC3CCCCC3)s2)cc1	-9.2%	17.4%
95	CN1C(=O)Cc2cc(S(=O)(=O)CCC(=O)Nc3ccc(OC(F)(F)F)cc3)ccc21	51.3%	-27.6%
96	CCOC(=O)c1cnc2c(ccc3ccccc32)c1Nc1ccc(OCC)cc1	-27.6%	-20.5%
97	Cc1ccc(Cn2c(CNC(=O)c3ccc(Cl)c([N+](=O)[O-])c3)nc3cccnc32)cc1	-26.3%	-19.4%
98	Cc1cccc(CNC(=O)c2cnc3sc(N4CCOCC4)nn3c2=O)c1	-9.9%	10.7%
99	Cc1c(C(=O)Nc2ccc(F)c(C(F)(F)F)c2)sc2nc(-c3ccccc3)cn12	?	?
100	CCOC(=O)C1=C(CN2CCN(CC)CC2)NC(=O)NC1c1ccc(Cl)cc1 (centres undefined)	-32.6%	3.8%
101	COCCNC(=O)Cn1c(=O)n(CCCCCC(=O)NCc2ccc3c(c2)OCO3)c(=O)c2sccc21	-2.3%	-8.1%

Three compounds already listed, sorted by the number in HTT prom inh, largest number first.
No.	Structure	HTT prom inh
24	CCOc1ccc(NC(=O)CSc2oc(-c3cccs3)nc2S(=O)(=O)c2ccc(Cl)cc2)cc1	-12.6%
6	COC(=O)c1cc2oc(C)cc2n1Cc1ccccc1Cl	-19.0%
54	COC(=O)CC1Oc2ccc(C)cc2-n2cc(-c3ccc(F)cc3)nc21 (centres undefined)	-20.7%
